Compound activity from PubChem.
Measles inh = inhibitors of measles virus growth in infected cells. 0.1% of 33,000 active. z-score (test concentration not listed). infected Vero cells, GFP fluorescence, 64 h; stronger effect = lower value;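 active means z-score under -3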;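 further: score is relative to mean and SD of the compound wells of a plate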
* = called active by the depositor. This is a subset, so the mix of outcomes need not match the whole.

structure,Measles inh
COc1ccc(C2C(C(=O)Nc3ccc(C)c(F)c3)c3ccccc3C(=O)N2C2CCCCC2)cc1 (stereo not drawn),-0.26
COC(=O)C1=C(C)N(C)C(=O)NC1c1cc(Br)c(O)c(OC)c1 (stereo not drawn),0.17
Cc1cc(C)c(C#N)c(SCc2cn3cccnc3n2)n1,-0.5
COc1ccc(OC)c(Nc2nc(-c3cc4cc(Br)ccc4oc3=O)cs2)c1,-0.13
Cc1ccc(S(=O)(=O)N2CCC(C(=O)Nc3cc(C)cc(C)c3)CC2)cc1,0.49
O=C(CCCCCn1c(=S)[nH]c2ccc(Br)cc2c1=O)NC1CCCC1,1.5
O=C(CCC1CCCC1)Nc1ccc(S(=O)(=O)N2CCOCC2)cc1,1.1
CCCNC(=O)CCSc1nc2nc(C)cc(C)n2n1,0.01
COc1nc(SC)nnc1C,-5.8*
CN(CCNS(=O)(=O)c1cccc2nsnc12)Cc1ccccc1,0.93
O=C(CCN1C(=O)c2ccccc2C1=O)N1CCN(c2cccc(Cl)c2)CC1,0.91
Cc1ccc(Oc2ccc(NC(=O)C(CC(C)C)N3C(=O)c4ccccc4C3=O)cc2)cc1 (stereo not drawn),-1.2
O=C(NCCc1ccc(Cl)cc1)c1c[nH]c2ccc(S(=O)(=O)Nc3ccc4c(c3)OCCO4)cc2c1=O,1.1
COc1cc2c(cc1OC)CN(C=Nc1oc(-c3ccccc3)c(-c3ccccc3)c1C#N)CC2,1.1
COC(=O)C1=C(C)NC(C)=C(C(=O)OCCCBr)C1c1cccc([N+](=O)[O-])c1 (stereo not drawn),-0.25
Cc1cc(C)n2nc(SCC(=O)NC(C)CCc3ccccc3)nc2n1 (stereo not drawn),-0.58
Cc1ccc(S(=O)(=O)Nc2ccccc2C(=O)Nc2nc(-c3ccc(C#N)cc3)cs2)cc1,-0.54
O=C1c2cccc([N+](=O)[O-])c2C(=O)N1c1ccc(Br)cc1,0.16
CCN(CC)c1ncc2c(n1)CC(c1ccco1)CC2=O (stereo not drawn),-0.34
Cc1cc(C)nc(/N=C(\N)Nc2ccccc2-c2ccccc2)n1,0.13
COc1cc(C(=O)O)ccc1OCc1ccc(Cl)cc1,-0.29
CCOc1c(NC(=O)c2ccc([N+](=O)[O-])cc2)cc(NC(=O)c2ccc([N+](=O)[O-])cc2)cc1C(N)=O,0.48
COc1ccc(Cl)cc1C(=O)Nc1nnc(C(C)C)s1,-0.29
O=C(NC1CCCCC1)c1cccc(S(=O)(=O)N2CCCCC2)c1,2.3
COc1ccc(NC(=O)c2cccc(N3C(=O)c4ccc(C(=O)O)cc4C3=O)c2)c(OC)c1,0.49
CC(C)CCNC(=O)c1cc(-c2ccc(Br)s2)nc2ccccc12,-0.51
CC1=C(C(=O)OC(C)C)C(c2ccc(C(C)C)cc2)N2C(=O)C(C)SC2=N1 (stereo not drawn),-0.21
CC1=C(C(=O)OC(C)C)C(c2ccc([N+](=O)[O-])cc2)c2c(nc(SCc3ccccc3)[nH]c2=O)N1 (stereo not drawn),-0.62
Cc1cc(C)c2oc(-c3ccc(C)c(NC(=O)c4cccc(F)c4)c3)nc2c1,0.07
Cc1ccc(CSC2=Nc3ccccc3C3=NC(c4ccccc4)C(=O)N23)cc1 (stereo not drawn),0.54
Cn1c(=NC(=O)c2ccc(S(=O)(=O)N3CCCCC3)cc2)sc2cc([N+](=O)[O-])ccc21,0.99
Cc1ccc(N2C(=O)CSC2c2ccc(F)cc2)cc1 (stereo not drawn),-0.67
Cn1cc(CC(=O)Nc2cccc(Cl)c2)c2ccccc21,-1.4
Cc1ccc([N+](=O)[O-])cc1S(=O)(=O)N(C(=O)c1ccncc1)c1ccc2oc3c(c2c1)CCCC3,0.09
CCOc1ccc(NS(=O)(=O)c2ccc3c(c2)CC(C)N3C(C)=O)cc1 (stereo not drawn),-0.04
Cc1ccc(CNC(=O)c2cccnc2SCc2cccc(Br)c2)cc1,-0.47

In the list so far, these contain four or more nitrogen atoms.
structure,Measles inh
Cc1cc(C)c(C#N)c(SCc2cn3cccnc3n2)n1,-0.5
CCCNC(=O)CCSc1nc2nc(C)cc(C)n2n1,0.01
CN(CCNS(=O)(=O)c1cccc2nsnc12)Cc1ccccc1,0.93
Cc1cc(C)n2nc(SCC(=O)NC(C)CCc3ccccc3)nc2n1 (stereo not drawn),-0.58
Cc1ccc(S(=O)(=O)Nc2ccccc2C(=O)Nc2nc(-c3ccc(C#N)cc3)cs2)cc1,-0.54
Cc1cc(C)nc(/N=C(\N)Nc2ccccc2-c2ccccc2)n1,0.13
CCOc1c(NC(=O)c2ccc([N+](=O)[O-])cc2)cc(NC(=O)c2ccc([N+](=O)[O-])cc2)cc1C(N)=O,0.48
CC1=C(C(=O)OC(C)C)C(c2ccc([N+](=O)[O-])cc2)c2c(nc(SCc3ccccc3)[nH]c2=O)N1 (stereo not drawn),-0.62
Cn1c(=NC(=O)c2ccc(S(=O)(=O)N3CCCCC3)cc2)sc2cc([N+](=O)[O-])ccc21,0.99

Next part
structure,Measles inh
Cc1ccc(NS(=O)(=O)c2cc(C(=O)Nc3ccc([N+](=O)[O-])cc3)ccc2C)cc1,-0.48
O=C1C=C(c2cccs2)CC(c2ccccc2)C1n1cnc([N+](=O)[O-])n1 (stereo not drawn),-0.43
CC(C)c1ccc(NC(=O)c2cc(S(=O)(=O)N3CCN(c4ccccc4F)CC3)ccc2F)cc1,-1.9
O=C1c2ccccc2C(=O)C1c1ccnc2ccccc12,0.04
COc1cc(OC)cc(C(=O)NCc2ccc3c(c2)OCO3)c1,-0.6
CCC(C)NC(=O)c1ccc2c(=O)n(CCN(CC)CC)c(=S)[nH]c2c1 (stereo not drawn),-0.88
COc1ccc(C2=CSC3=NCCN23)cc1Cl,-0.22
Cc1ccc2nc(NC(=O)c3ccccc3[N+](=O)[O-])sc2c1,-1.2
COc1cccc(-c2cc(C(=O)Nc3cccc4c3C(=O)c3ccccc3C4=O)c3ccccc3n2)c1,0.67
CCOc1ccc(C(=O)Nc2cccc(-c3nc4cc(C)ccc4o3)c2)cc1,-0.95
CCC(C(=O)Nc1ccccc1OC)n1nc(-c2ccc(OC)cc2)ccc1=O (stereo not drawn),-0.21
c1ccc2c(C(c3ccsc3)c3c[nH]c4ccccc34)c[nH]c2c1,0.26
COCCN1C(=O)c2ccccc2C(C(=O)NCc2ccc(C)cc2)C1c1c[nH]c2ccccc12 (stereo not drawn),1.6
COCCN1C(=O)c2ccccc2C(C(=O)Nc2ccc(Br)cc2C)C1c1cn(C)c2ccccc12 (stereo not drawn),-0.65
NCCCCCCNc1ccc(C(F)(F)F)cc1[N+](=O)[O-],-0.68
COc1cccc(C2CC(c3ccccc3Cl)n3nnnc3N2)c1 (stereo not drawn),-0.09
CC1CCN(C(=O)CSc2cn(CCNC(=O)c3cccc(C(F)(F)F)c3)c3ccccc23)CC1,-1.8
Cn1c(=O)c2c(nc(NCC3CCCO3)n2Cc2ccc(Cl)cc2)n(C)c1=O (stereo not drawn),-0.22
O=c1c2sc3ccccc3c2[nH]c(=S)n1C1CCN(Cc2ccccc2)CC1,-0.93
Cc1ccc(/C(O)=C2\C(=O)C(=O)N(Cc3cccnc3)C2c2ccc(Cl)cc2)cc1 (stereo not drawn),0.72
CCN(CC)C(=O)CSc1nc2c(c(=O)n1Cc1ccccc1)C1(CCCC1)Cc1ccccc1-2,-0.32
COc1ccccc1N(CC(=O)N(C)C)S(C)(=O)=O,-0.85
Cc1ccc(OC(=O)CN2C(=O)c3ccccc3C2=O)c(-n2nc3ccccc3n2)c1,0.01
O=C(NCCN1CCN(Cc2ccccc2)CC1)C1CC(=O)N(C2CCCC2)C1 (stereo not drawn),0.31
COc1cccc2c1OC(c1ccccc1Cl)N1N=C(c3ccco3)CC21 (stereo not drawn),2.5
O=C(Cc1cccs1)Nc1ccc(-c2nnc(-c3ccco3)o2)cc1,-1.1
O=C(NC1CCCCCC1)C1CCCN(S(=O)(=O)c2ccc(Br)s2)C1 (stereo not drawn),-0.22
CC(C)CCn1c(CO)nc2ccccc21,-0.83
CC(=O)Nc1ccc(S(=O)(=O)NCC2CCC(C(=O)NC3CCCC3)CC2)cc1 (stereo not drawn),1.1
CC1(C)CC(=O)C2=C(C1)Nc1ccccc1N(C(=O)Cc1ccc(Cl)cc1)C2c1ccccc1F (stereo not drawn),0.85
Cc1ccc(Cl)cc1-n1c(CCC(=O)O)ccc1-c1ccccc1,0.37
Cc1ccc(-c2c(C(=O)Nc3ccc(S(N)(=O)=O)cc3)oc(=O)c3ccccc23)cc1,-0.92
COc1ccc(N2CCN(C(=O)c3cccn4c(=O)c5cc(Cl)ccc5nc34)CC2)cc1,0.59
Cc1ccccc1-c1nc(-c2cccnc2)no1,-0.15
CCC(C)OC(=O)c1[nH]c2c(c1C)C(=O)CCC2 (stereo not drawn),-0.41
CCOc1ccc(N2C(=O)CC(N3CCC(C(N)=O)(N4CCCCC4)CC3)C2=O)cc1 (stereo not drawn),0.6
Cc1ccc(CN2C(=O)CN(CC(=O)NC3CCCC3)C(=O)C2c2ccccc2F)cc1 (stereo not drawn),3.1
CCOc1ccc(NC(=O)c2ccc(F)c(S(=O)(=O)N(CC)c3cccc(C)c3)c2)cc1,-0.52
N#Cc1ccccc1Cn1c(=O)n(CCc2ccc(Cl)cc2)c(=O)c2ccccc21,-0.48
Cc1ccc2oc(-c3cc(N=Cc4cccc(I)c4O)ccc3O)nc2c1,-0.47
CN(C)CCCN1C(=O)C(=O)/C(=C(/O)c2ccccc2)C1c1ccc(F)cc1 (stereo not drawn),-1.2
Cc1ccc(S(=O)(=O)N=C(c2ccccc2)N2CCOCC2)cc1,0.07
COc1cccc(N2CCN(C(=O)c3ccc(N4C(=O)NC5CC4(C)Oc4ccccc45)cc3)CC2)c1 (stereo not drawn),0.58
CCOC(=O)c1ccc(NC(=O)CCc2c[nH]c3ccccc23)cc1,-1
O=C(Cn1c(=O)oc2ccccc21)Nc1cccc2c1CCCC2,-1
O=C(NC1CCCCC1)c1ccc2c(=O)[nH]c3c(C(=O)NC4CCCC4)sc(=S)n3c2c1,0
Cc1cc(I)ccc1N1C(=O)C2C3C=CC(C3)C2C1=O (stereo not drawn),0.17
C=CCN(CC=C)S(=O)(=O)c1ccc(C(=O)N=c2sc3cccc(Cl)c3n2CC)cc1,1.1
COc1cccc(-n2nc(C(=O)N3CCC(C)CC3)c3ccccc3c2=O)c1,-0.66
O=C(CN1CCN(Cc2ccccc2F)CC1)Nc1ccccc1Cl,-0.48
Cc1ccc(NC(=O)CC(O)(C(F)(F)F)C(F)(F)F)cc1,0.52
COC(=O)c1c(C)oc2cc(Br)c(OCc3ccc([N+](=O)[O-])cc3)cc12,0.42
COc1ccc(CNCc2ccc3c(c2)OCO3)c2ccccc12,-0.74
COc1cc(C(=O)Nc2ccc(Oc3ccc(Cl)cc3)cc2)cc(OC)c1OC,1.2
O=C(NCCc1ccccc1)N1c2ccccc2Sc2ccccc21,0.27
O=C(O)c1ccc(N2C(=O)c3ccc(C45CC6CC(CC(C6)C4)C5)cc3C2=O)cc1,0.02
COC(=O)c1ccc(CSc2nc(C)[nH]c2[N+](=O)[O-])o1,1.5
O=C(CCCCCn1c(=S)[nH]c2ccc(Br)cc2c1=O)NCc1ccc2c(c1)OCO2,-1
Cc1nonc1NC(=O)N1CCOCC1,-0.47
Cc1ccc(S(=O)(=O)NC(=O)Nc2ccc(OC(F)(F)F)cc2)cc1,2

The list continues.
structure,Measles inh
COc1ccccc1-c1cc(C(=O)NC2CCCCC2)no1,-0.27
Cc1nn(C(=O)c2ccc(Br)cc2)c(C)c1Sc1ccccc1[N+](=O)[O-],-0.09
Cc1cc(OCC(=O)N2N=C(C3CCCCC3)CC2(O)C(F)(F)F)ccc1Cl (stereo not drawn),-0.67
CCCCCn1c(SCCCO)nc2c1c(=O)[nH]c(=O)n2C,-0.13
COc1ccccc1N1CCN(C(=O)c2ccc(N3CC4CC(C3)c3cccc(=O)n3C4)c(NC(=O)c3cccs3)c2)CC1 (stereo not drawn),1.5
COc1ccc(Cl)cc1S(=O)(=O)N1CCc2ccccc2C1CN1C(=O)c2ccccc2C1=O (stereo not drawn),-0.09
CCOC(=O)C1=C(c2ccccc2)NC(=O)NC1c1ccccc1Cl (stereo not drawn),0.24
COc1ccccc1C(=O)N1N=C(C)CC1(O)C(F)(F)F (stereo not drawn),0.4
C#CCSc1nc2ccccc2[nH]1,-0.3
CCCCOc1ccc(C(=O)Nc2ccc(-n3nncc3-c3ccccc3)cc2)cc1,-0.5
CCOC(=O)c1sc(=S)n(-c2ccccc2CC)c1N,0.4
COc1ccccc1C1C=C(c2ccc(Br)cc2)Nc2nc3ccccc3n21 (stereo not drawn),0.85
CCc1ncc(C(O)(c2ccccc2)c2cc(C)ccc2C)n1C (stereo not drawn),-0.24
N#CCSc1nnnn1-c1ccccc1F,-1
O=C(CN1N=C(c2ccc(Cl)cc2)CCC1=O)NC1CCCC1,-0.56
CC(C)c1ccc(NC(=O)CCNC(=O)Cn2cnc3ccccc3c2=O)cc1,0.4
O=C1c2ccccc2NC(c2ccccc2)N1c1cccc(C(F)(F)F)c1 (stereo not drawn),-0.06
CC(C)CCSc1nc2ccccc2[nH]1,-0.91
Cc1cc(C)n(-c2ncn[nH]2)n1,0.14
CCCN1C(=O)c2ccccc2NC1c1ccc(OC)c(COc2ccc(F)cc2)c1 (stereo not drawn),-0.81
O=C(CCC1CCCCC1)Nc1ccc(N2CCOCC2)c2nonc12,1.4
Nc1c(C(=O)Nc2ccccc2)sc2nc(-c3ccncc3)ccc12,-0.15
